VDR inh = vitamin D3 receptor (human) inhibition. VDR-SRC2-3 peptide fluorescence polarization, 2 h. 400,000 compounds, 0.93% hits. P11473. AID 504847. Potency, µM, without a hit: max response, negative = inhibition, hits mostly inhibitors; active = well fitted inhibition curve with a large enough effect; inconclusive = small, poorly fitted or top-dose-only effect, or another doubt; inactive = no such curve, though single readings can be large or run the other way; also: series mostly up to about 120 µM
Target sequence (P11473 whole entry, looked up): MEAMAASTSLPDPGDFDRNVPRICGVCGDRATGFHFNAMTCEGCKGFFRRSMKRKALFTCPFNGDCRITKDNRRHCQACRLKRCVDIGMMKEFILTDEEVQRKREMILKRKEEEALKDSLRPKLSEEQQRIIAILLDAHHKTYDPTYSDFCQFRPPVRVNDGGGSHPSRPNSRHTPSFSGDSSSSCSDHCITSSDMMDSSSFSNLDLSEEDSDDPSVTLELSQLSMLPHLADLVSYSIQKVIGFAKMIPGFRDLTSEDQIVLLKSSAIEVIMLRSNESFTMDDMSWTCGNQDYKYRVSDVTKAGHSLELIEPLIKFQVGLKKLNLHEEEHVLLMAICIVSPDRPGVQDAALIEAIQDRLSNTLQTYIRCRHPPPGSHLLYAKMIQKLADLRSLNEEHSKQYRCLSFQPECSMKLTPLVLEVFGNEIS
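FP read-out; VDR + SRC2-3 coactivator peptide; 23 nl compound by pintool; 2 h RT incubation; reagents held at 4 deg C, protected from light.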
Starred values were filed as active, the others as inactive; ? = inconclusive; & = joins results of further samples. % is scaled to controls: 0 for no effect and ±100 for the full control effect; potency is read from the fitted curve at half-maximal effect. This is a subset; count on the stated rates, not on these rows.

SMILES | VDR inh
Cc1nc(N2CCN(c3ccccn3)CC2)c2c(C)c(C(=O)Nc3ccc(Cl)cc3)sc2n1 | -24%
CC(C)(C)NC(=O)c1ccc(C(=O)NC(C)(C)C)cc1 | 1%
C/C(=N\NC(=O)C(=O)Nc1cccc(C(F)(F)F)c1)c1ccc(Cl)s1 | -5%
O=c1[nH]n(-c2ccc([N+](=O)[O-])cc2)c(=O)c2ccccc12 | -25%
COCCNC(=O)Cc1ccc(Br)cc1 | 1%
COCCn1c(=NC(=O)c2ccc(S(=O)(=O)N3CCc4ccccc4C3)cc2)sc2cc(S(N)(=O)=O)ccc21 | 4%
CCN(CC)c1ccc(C2Nc3cccc4cccc(c34)N2)c(O)c1 | 13%
C[C@H](NC(=O)c1nc[nH]c1C(=O)NCC(=O)OC(C)(C)C)C(=O)OC(C)(C)C | -15%
CCN(CCCNC(=O)c1nn(-c2ccc(C)cc2)c(=O)c2c1c1ccccc1n2C)c1cccc(C)c1 | -21%
CCCCOc1nnc(-c2ccc(OCC)cc2)c2ccccc12 | -7%
CCOc1cc(C(N)=O)cc(Br)c1OC | 1%
CN(C)CCN(Cc1cc2cc3c(cc2[nH]c1=O)OCO3)C(=S)NCC1CCCO1 (stereo unspecified) | 29%
Cc1cc(NNC(=O)c2ccccc2)nc(NNC(=O)c2ccccc2)n1 | 8%
O=C(CSc1nnnn1C1CCCC1)N1CCCc2ccccc21 | 5%
CSCC[C@H](NC(=O)OC(C)(C)C)c1nnc(SCC(N)=O)o1 | -6%
CCCCOc1ccc(-c2nnn(CC(=O)NCc3ccco3)n2)cc1 | -8%
Cc1ccc(Cl)cc1NC(=O)Cn1c(=O)c(CNc2ccccc2)cc2cc3c(cc21)OCCO3 | 4%
COC(=O)c1cccc(NC(=O)c2ccc[n+]([O-])c2)c1 | 0%
Cc1csc(=O)n1CC(=O)OC(C)C(=O)Nc1cccc(Cl)c1 (stereo unspecified) | 0%
COc1cc(/C(C#N)=C/c2ccccc2)c([N+](=O)[O-])cc1OC | -8%
Cc1cc(OCC(=O)N2CCCC2)cc(C)c1Cl | 11%
CCOc1ccc2nc(SC3CC(=O)N(c4cccc(OC)c4)C3=O)sc2c1 (stereo unspecified) | -2%
Cc1ccc(C)c(N2CCN(C(=O)CCS(=O)(=O)c3ccc4c(c3)CCN4C(=O)C3CC3)CC2)c1 | -11%
c1ccc2cc(CSCc3nc4ccccc4[nH]3)ccc2c1 | -9%

Reprinted from the results shown, 19 compounds:
SMILES | VDR inh
Cc1nc(N2CCN(c3ccccn3)CC2)c2c(C)c(C(=O)Nc3ccc(Cl)cc3)sc2n1 | -24%
CC(C)(C)NC(=O)c1ccc(C(=O)NC(C)(C)C)cc1 | 1%
C/C(=N\NC(=O)C(=O)Nc1cccc(C(F)(F)F)c1)c1ccc(Cl)s1 | -5%
O=c1[nH]n(-c2ccc([N+](=O)[O-])cc2)c(=O)c2ccccc12 | -25%
COCCNC(=O)Cc1ccc(Br)cc1 | 1%
COCCn1c(=NC(=O)c2ccc(S(=O)(=O)N3CCc4ccccc4C3)cc2)sc2cc(S(N)(=O)=O)ccc21 | 4%
CCN(CC)c1ccc(C2Nc3cccc4cccc(c34)N2)c(O)c1 | 13%
C[C@H](NC(=O)c1nc[nH]c1C(=O)NCC(=O)OC(C)(C)C)C(=O)OC(C)(C)C | -15%
CCN(CCCNC(=O)c1nn(-c2ccc(C)cc2)c(=O)c2c1c1ccccc1n2C)c1cccc(C)c1 | -21%
CCCCOc1nnc(-c2ccc(OCC)cc2)c2ccccc12 | -7%
CCOc1cc(C(N)=O)cc(Br)c1OC | 1%
CN(C)CCN(Cc1cc2cc3c(cc2[nH]c1=O)OCO3)C(=S)NCC1CCCO1 (stereo unspecified) | 29%
Cc1cc(NNC(=O)c2ccccc2)nc(NNC(=O)c2ccccc2)n1 | 8%
O=C(CSc1nnnn1C1CCCC1)N1CCCc2ccccc21 | 5%
CSCC[C@H](NC(=O)OC(C)(C)C)c1nnc(SCC(N)=O)o1 | -6%
CCCCOc1ccc(-c2nnn(CC(=O)NCc3ccco3)n2)cc1 | -8%
Cc1ccc(Cl)cc1NC(=O)Cn1c(=O)c(CNc2ccccc2)cc2cc3c(cc21)OCCO3 | 4%
COC(=O)c1cccc(NC(=O)c2ccc[n+]([O-])c2)c1 | 0%
Cc1csc(=O)n1CC(=O)OC(C)C(=O)Nc1cccc(Cl)c1 (stereo unspecified) | 0%

More compounds follow.
SMILES | VDR inh
O=C1C(Cl)=C(N2CCOCC2)C(=O)N1c1cccc(C(F)(F)F)c1 | 35µM*
C=CCNC(=O)c1cccc2c1C(=O)c1ccc(N3CCOCC3)cc1S2(=O)=O | 0%
CCN(CC(=O)Nc1cc(Cl)ccc1C)C(=O)c1oc2ccc(OC)cc2c1C | -5%
CC(C)c1nc(NCc2ccccc2)c(C#N)c2c1CCCC2 | 2%
CCc1ccc(OCc2nnc(SCCN3CCOCC3)n2CC)cc1 | -4%
Cc1ccccc1NC(=S)N1CCC(NC(=O)c2ccco2)CC1 | 10%
O=c1cc(/N=C/c2coc3c(ccc4ccccc43)c2=O)[nH]c(=S)[nH]1 | -15%
CC(=O)N1CCOc2ccc(S(=O)(=O)Nc3cccc(C)n3)cc21 | -19%
Cc1ccc(/C=N/c2sc3c(c2C#N)CCCCC3)o1 | -6%
CCOc1ccc(-c2nnc(-c3ccco3)o2)cc1 | 4%
CCN(CC)CCN1C(=O)C2C3c4ccccc4C(c4ccccc43)C2C1=O (stereo unspecified) | -3%
Cc1cccc(NC(=O)Nc2cccc3ccccc23)c1 | 8%
CC(C)c1ccccc1NC(=O)C1CN(S(=O)(=O)c2ccccc2)CCN1S(=O)(=O)c1ccccc1 (stereo unspecified) | ?
CC(=O)Nc1ccc(SCC(=O)c2cc(C)n(C)c2C)cc1 | 3%
COc1ccc(C2CC(=O)N(CCCN(C)CCc3ccc(OC)c(OC)c3)C2)cc1 (stereo unspecified) | -1%
Cc1nnnn1-c1cccc(C(=O)O)c1 | 4%
O=C(CNC(=O)c1nc[nH]c1C(=O)N1CCN(c2ccccc2)CC1)OCc1ccccc1 | -13%
CC(NC(=O)CCNS(=O)(=O)c1ccc2c(c1)c(=O)n(C)c(=O)n2C)c1ccccc1 (stereo unspecified) | 2%
COc1ccc(OC)c(-n2nnnc2SCC(=O)Nc2cc(C)ccc2OC)c1 | -10%
Cc1ccc(NC(=O)c2nc(S(=O)(=O)Cc3ccc(F)cc3)ncc2Cl)cc1C | -30%
O=C1COc2ccc(C(=O)COc3ccc(Cl)cc3Br)cc2N1 | -8%
Cc1ccc(N(C(=O)CS(=O)CC(=O)Nc2ccc(F)cc2)C(C(=O)NC2CCCCC2)c2ccco2)cc1 (stereo unspecified) | -3%
COCCN1CCN(C(=O)C2CCC(=O)N(Cc3ccccc3F)C2)CC1 (stereo unspecified) | 6%
CC(C)C(NC(=O)c1ccc2c(c1)OCO2)C(=O)N/N=C/c1cccs1 (stereo unspecified) | -8%
O=C(N/N=C/C=C/c1ccc2c(c1)OCO2)C(O)c1ccccc1 (stereo unspecified) | -7%
C/C(=N\NC(=O)Cc1csc(N2CCOCC2)n1)c1ccccc1 | 7%
O=C(O)c1ccc(C2NCC(c3ccccc3Cl)c3c2[nH]c2ccccc32)cc1 (stereo unspecified) | -12%
C=CCN1C(=O)C(O)(CC(=O)c2ccc(N)cc2)c2ccccc21 (stereo unspecified) | -14%
Cc1ccc(NC(=O)Cn2c(-c3nonc3N)nc3ccccc32)c(Br)c1 | 6%
Cc1cc(C)c2oc(-c3ccc(Cl)c(NC(=O)c4cccs4)c3)nc2c1 | 4%
O=C(C[n+]1ccccc1)N/N=C/c1ccc(Cl)c(Cl)c1 | 9%
CC(=O)N1CCC(N(CCN2CCOCC2)C(=O)Nc2ccc(Cl)c(Cl)c2)CC1 | -6%
COc1ccccc1NS(=O)(=O)c1ccc(C)c(C(=O)NCC2CCCO2)c1 (stereo unspecified) | 2%
CC1CC(C)CN(C(=O)COC(=O)COc2ccccc2C#N)C1 (stereo unspecified) | 26%
CCN(CC)C(=O)Cn1c(=O)n(-c2ccc(C)c(C)c2)c(=O)c2c(C)c(C(=O)N(CC)CC)sc21 | -4%
O=C(Nc1nc2ccccc2s1)c1ccccc1 | -26%

2 consecutive compounds out of the list so far, for reference:
SMILES | VDR inh
COc1ccccc1NS(=O)(=O)c1ccc(C)c(C(=O)NCC2CCCO2)c1 (stereo unspecified) | 2%
CC1CC(C)CN(C(=O)COC(=O)COc2ccccc2C#N)C1 (stereo unspecified) | 26%

Next part:
SMILES | VDR inh
CCOc1ccccc1NC(=O)N1CCN(S(C)(=O)=O)CC1 | -3%
CCOC(=O)COn1c(=O)c(-c2ccc(Cl)cc2)[n+]([O-])c2ccccc21 | -8%
CC(=O)Nc1ccc(C(=O)NNC(=O)C2C3CCCCC32)cc1 (stereo unspecified) | -1%
COc1ccc(C(=O)/C=C/c2ccc(OC)cc2OC)c(O)c1 | -8%
COc1ccc(N2CCN(C(=O)C(=O)c3c(C)[nH]c4ccccc34)CC2)cc1 | -6%
Cc1ccc(N=CNc2ccc(C)cc2C)c(C)c1 | 12%
Cc1cc(NC(=O)CCN2C(=O)/C(=C/c3ccccc3Cl)SC2=S)no1 | -15%
COC(=O)/C=C(\C)N=Nc1c(O)[nH]c2ccccc12 | 11%
COC(=O)c1ccc(NC(=O)c2ccc(N(C)S(C)(=O)=O)cc2)cc1 | 2%
COc1ccc(CNC(=O)CN(C(=O)c2snc(C(N)=O)c2N)c2ccccc2F)cc1 | -2%
COc1cc2c(-c3ccc4cc[nH]c4c3)c(-c3ccc(C#N)cc3)oc(=O)c2cc1OC | -20%
O=C(/C=C\c1ccco1)Nc1nc(-c2ccccc2)cs1 | 2%
O=C1c2cccc3c(Nc4ccccc4Cl)c([N+](=O)[O-])cc(c23)C(=O)N1CCO | ?
Cc1cc(C)c(NS(=O)(=O)c2ccc3c(c2)NC(=O)CC(=O)N3)c(C)c1 | 19%
Cc1ccc(C(=O)NNC(=O)c2csc(N3CCOCC3)n2)s1 | -8%
CC(C)CC1C(C#N)=C(N)OC2=C1C(=O)CC(c1ccccc1)C2 (stereo unspecified) | -9%
CCN(CC(=O)Nc1sc2c(c1C#N)CCCC2)CC(=O)NC1CCS(=O)(=O)C1 (stereo unspecified) | 15%
O=C(CC1C(=O)NCCN1C(=O)Nc1ccccc1)Nc1ccc2c(c1)OCCO2 (stereo unspecified) | 21%
Cc1cc(-c2ccccc2)nc2cc(C(=O)NCc3ccco3)nn12 | ?
COCCN(C(=S)Nc1ccccc1OC)C1CCN(C(C)=O)CC1 | -9%
Cc1c(Cl)cccc1NC(=O)N1CCC(CN2CCCC2)CC1 | 13%
O=C(CSc1nnc(-c2cccnc2)o1)c1cc2ccccc2oc1=O | 11%
COc1ccc(C2NC(c3ccc(OC)cc3OC)C(C)C(=O)C2C)c(OC)c1 (stereo unspecified) | -18%
Cc1ccc(CNc2nc3ccccc3n3c(C)nnc23)cc1 | 13%
O=C(O)CCOc1ccc2c(c1)OCCO2 | 5%
O=C(Nc1ncccn1)c1ccc(C(F)(F)F)cc1 | ?
NCC1OC(OC2C(N)CC(N)[C@@H](O)[C@@H]2OC2O[C@H](CO)[C@@H](O[C@@H]3OC(CN)C(O)C(O)C3N)C2O)C(N)C(O)C1O (stereo partly specified) | 0%
Cc1cccc([C@@H]2[C@@H]3C(=O)N(Cc4ccccc4)C(=O)[C@@H]3[C@]3(C)C(=O)N(c4ccc(C(F)(F)F)cc4)C(=O)N23)c1 | -12%
Cc1ccc2c(c1)NC(=O)c1cc([N+](=O)[O-])ccc1O2 | 8%
COc1ccc(CCNC(=O)Cn2nc([N+](=O)[O-])c(Br)c2C)cc1OC | -1%
CC(=O)Nc1cccc(C(=O)N2CCN(S(=O)(=O)c3ccc(C4CCCCC4)cc3)CC2)c1 | -13%
O=C(O)c1cc2nc(-c3ccccc3)cc(-c3ccccc3)n2n1 | -7%
CC(=O)Nc1ccc(NC(=O)CSc2nc3nc(C)cc(C)c3c(=O)[nH]2)cc1 | -2%
CCN(CC)CCSc1nnc(Nc2ccccc2)n1-c1ccccc1 | 13%
COc1ccc(/C=N/Nc2ccccn2)cc1O | -9%
CCc1ccc(NC(=O)CC2C(=O)NCCN2C(=O)c2ccccc2OC)cc1 (stereo unspecified) | -12%&-1%
O=C(O)C1CCCCC1C(=O)Nc1ccc2c(c1)CCC2 (stereo unspecified) | 19%
CCCCCCCCCCCCCCCC[N+](C)(C)CCN(Cc1ccc(OC)cc1)c1ncccn1 | 18%&-4%
CC(C)Sc1nc2ccsc2c(=O)[nH]1 | 1%
O=C(Nc1ccccc1F)C1C2C=CC3(O2)C1C(=O)N(c1cccnc1)C3C(=O)NC1CCCCC1 (stereo unspecified) | -2%
Cn1c(Sc2nc3ccccc3n2C)nc2ccccc21 | -13%
CCSc1ccccc1C(=O)N1CCC2(CC1)CC(=O)c1ccccc1O2 | -17%
Cc1ccc(/C=N/Nc2nncn2N)cc1 | -12%
COc1ccc(NC(=O)CSc2nc(-c3ccc(C)cc3)cc(C(F)(F)F)c2C#N)cc1 | -5%
COc1cc(NC(=O)C2CCCN(S(=O)(=O)c3cnc[nH]3)C2)cc(OC)c1 (stereo unspecified) | 3%
Cc1ccc(S(=O)(=O)c2cc3ccccc3oc2=O)cc1 | 10%
CCCCOC(=O)C1C2CCC(O2)C1C(=O)OCC (stereo unspecified) | -5%
Cc1ccc(S(=O)(=O)Nc2nc3ccccc3s2)cc1[N+](=O)[O-] | 9%
CCOC(=O)Cc1csc(NC(=O)CSc2nc3sc(C(=O)O)c(C)c3c(=O)[nH]2)n1 | -1%
Cc1ccc(S(=O)(=O)N2CCCC(C(=O)N3CCN(c4ccccc4)CC3)C2)cc1 (stereo unspecified) | 13%
O=C(O)CCSc1nc(C(F)(F)F)cc(=O)n1-c1ccccc1 | 11%
COCCN1CN=C(Nc2nc3ccccc3o2)NC1 | 22%
COc1ccc(C2SCCN2S(=O)(=O)c2ccccc2)cc1 (stereo unspecified) | -11%
Cc1c(-n2c(=S)[nH]c3ccccc3c2=O)c(=O)n(-c2ccccc2)n1C | 18%
Cc1ccc(CNC(=O)CN(Cc2ccccc2)S(C)(=O)=O)cc1 | 6%
Cn1c(SCC(=O)Nc2ccccc2Cl)nnc1C1CC1 | -3%

Screening data (PubChem BioAssay)
